ugtP null kill: growth inhibition of S. aureus ugtP deletion strain | S. aureus RN4220 ugtP deletion, OD600 growth, 16 h; some inactives read as strong as hits | growth inhibition, % (concentration not given with the values) | actives 0.54% (n = 330,000);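 active means z-score under -3 and OD600 up to 0.15 on both plates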;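 further: plate controls were untreated wells for no effect and antibiotic for full effect; wells of about 80 µL received 100 nL stock; the first replicate is given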
PrP 5UTR inh: inhibition of PrP 5' UTR reporter expression; cell-based PrP 5' UTR mRNA reporter, plate reader; inhibition, % (no concentration beside the values); actives 0.35% (n = 340,000); AID 488862;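 active means every replicate at 50% or more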;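 further: 0 = median of the neutral control wells; tested in H4 reporter cells; numbers are from one replicate; inactives centre near -14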
Bead autofluor: counter-screen for toxin protease inhibitors: compound fluorescence | actives 3.1% (n = 360,000) | compound autofluorescence counterscreen, microsphere flow cytometry; stronger effect = higher value | fluorescence intensity (test concentration not listed);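 active means at least 3 SD above the mean of all compounds, about 16000 in these data; inconclusive means too few beads counted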;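 further: 100 nL of 1 mM stock went into each well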
BJeLR viability: kills HRASV12-expressing BJeLR cells. BJeLR (HRASV12) viability, CellTiter-Glo ATP luminescence, 48 h; reference of the scale not given here. inhibition, % (no concentration beside the values). actives 0.17% (n = 300,000);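 active means replicate mean above 50%; inconclusive means above 50% but judged a plate artefact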;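 further: 50 nL library stock added to about 25 µL; numbers are from one replicate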
Mtb hypoxia inh: Mtb hypoxia fluorescent reporter inhibition; fluorescence inhibition, % (no concentration beside the values); M. tuberculosis hypoxia-regulated fluorescent reporter, fluorescence; AID 1159583; actives 0.1% (n = 300,000);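 active means 35 to 45% if threefold the growth effect, above 45% if 1.5-fold the growth effect; inactive means the rest, general growth blockers included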;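 further: wells of about 50 µL received 100 nL stock; 0% = vehicle wells and 100% = reference inhibitor wells; whole bacteria with a GFP reporter of the hypoxia response; strong numbers were not always called active; many hits fall short of the cut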
Sa RN4220 lethal: kills Staphylococcus aureus RN4220. S. aureus RN4220 growth, OD600, 16 h. inhibition, % (no concentration beside the values). actives 0.33% (n = 330,000). AID 1259311;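 active means z-score of -3 or lower and OD600 up to 0.18 on both plates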;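 further: plate controls were untreated cells for no effect and reference antibiotic for full effect; stock transfer was 100 nL into about 80 µL; one replicate is shown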
Mtb hypoxia inh growth: also measured in Mtb hypoxia inh; calls as there; growth inhibition, %; measured here: M. tuberculosis growth (absorbance);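 0% = vehicle and 100% = reference antibiotic; read after six days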
* hit, by the source's call; ? = inconclusive; . = not tested or not shown. Rows are unselected; overall some 4% were active at least once.

SMILES	ugtP null kill	PrP 5UTR inh	Bead autofluor	BJeLR viability	Mtb hypoxia inh	Mtb hypoxia inh growth	Sa RN4220 lethal
Cc1ccc2nc(NCCNC(=O)c3ccccc3)c(C#N)cc2c1	2.4	-16.6	3376	-6.0	7.1	2.5	3.3
C=CCN(C(=O)Nc1ccc2c(c1)nc(C)n2C)c1ccccc1	.	-15.8	4980	5.4	.	.	.
CCOC(=O)c1cccc(NC(=O)Nc2ccc3c(c2)C(=O)OC3)c1	4.3	.	6224	1.9	10.7	-1.5	1.0
COc1ccc(C2c3ccc(O)cc3Oc3ncn(Cc4ccco4)c(=N)c32)cc1OC (stereo unspecified)	5.3	-10.0	4058	-4.5	5.0	0.6	2.1
COc1ccccc1C(C)NCC(=O)NCC(=O)Nc1ccc(F)c(F)c1F (stereo unspecified)	1.2	-19.0	2513	-5.6	7.5	-4.4	4.9
CN1CCN(c2ccccc2NC(=O)Cc2ccc(Cl)cc2)CC1	0.4	5.7	21557*	-0.8	0.8	-8.9	-0.9
COc1cccc(C(=O)Nc2nnc(-c3ccc(OC)cc3OC)s2)c1	-0.9	-7.1	3836	-7.1	-17.3	-3.8	4.6
O=C(CSCc1c(F)cccc1Cl)NCc1ccncc1	2.0	28.9	4230	1.7	0.7	7.1	3.1
CCC(C)c1ccc(NC(=S)Nc2ccc(OC)c(OC)c2)cc1 (stereo unspecified)	8.0	-16.1	3155	-6.5	-3.8	0.0	4.4
Cc1cccc(-n2c(SCC(=O)N3CC(=O)Nc4ccccc43)nc3ccccc3c2=O)c1C	-6.7	-11.1	2719	-8.1	-7.5	13.6	-8.5
COc1ccc(N(Cc2cc3cc(OC)ccc3[nH]c2=O)S(=O)(=O)c2ccc(NC(C)=O)cc2)cc1	3.4	-2.5	5874	14.8	3.2	2.4	3.3
Cc1ccccc1N1CCN(C2CCCN(C(=O)CN3CCCC3=O)C2)CC1 (stereo unspecified)	3.8	-18.4	5923	0.2	0.4	-4.1	0.2
CCOC(=O)N/N=C/c1cn(CCCOc2ccccc2)c2ccccc12	.	-12.5	5212	0.3	.	.	.
Cc1ccc(CNC(=O)c2ccccc2N(C)S(C)(=O)=O)cc1	4.4	-31.9	3452	-5.1	10.6	-3.3	7.4
CCCn1c(C)cc(/C=C(\C#N)C(=O)OCC(=O)N(CC)c2c(N)n(Cc3ccccc3)c(=O)[nH]c2=O)c1C	4.9	-27.8	2982	.	7.9	6.7	1.6
CN(C)S(=O)(=O)c1ccc(N2CCCC2)c(C(=O)Nc2ccc(C(N)=O)cc2)c1	2.1	-12.2	?	2.5	-1.7	10.8	0.1
NNC(=O)COc1ccc(-c2n[nH]c(C(F)(F)F)c2-c2ccc(Br)cc2)c(O)c1	-15.2	-5.7	2492	1.1	4.3	4.0	0.2
NC(=O)C1CCN(c2ncnc3c(-c4ccccc4)nsc23)CC1	-7.9	-68.9	9860	0.0	2.2	9.0	7.5
Nc1cccc(-n2nnnc2CN2CCOCC2)c1	2.9	-19.9	2394	2.6	-1.7	-12.0	3.3
CN1CC2C(c3ccccc3)C3(c4ccccc4)CC2(C3)C1c1ccccc1 (stereo unspecified)	-1.3	.	.	.	1.6	6.3	-5.8

Profiles as entered above. Order of values: ugtP null kill	PrP 5UTR inh	Bead autofluor	BJeLR viability	Mtb hypoxia inh	Mtb hypoxia inh growth	Sa RN4220 lethal
Record of Cc1ccc2nc(NCCNC(=O)c3ccccc3)c(C#N)cc2c1 = 2.4	-16.6	3376	-6.0	7.1	2.5	3.3
Record of COc1ccc(N(Cc2cc3cc(OC)ccc3[nH]c2=O)S(=O)(=O)c2ccc(NC(C)=O)cc2)cc1 = 3.4	-2.5	5874	14.8	3.2	2.4	3.3

Among those listed so far, these contain a Cl atom:
SMILES	ugtP null kill	PrP 5UTR inh	Bead autofluor	BJeLR viability	Mtb hypoxia inh	Mtb hypoxia inh growth	Sa RN4220 lethal
CN1CCN(c2ccccc2NC(=O)Cc2ccc(Cl)cc2)CC1	0.4	5.7	21557*	-0.8	0.8	-8.9	-0.9
O=C(CSCc1c(F)cccc1Cl)NCc1ccncc1	2.0	28.9	4230	1.7	0.7	7.1	3.1

Single entries from the list:
In Bead autofluor, COc1ccccc1C(C)NCC(=O)NCC(=O)Nc1ccc(F)c(F)c1F (stereo unspecified) shows 2513
In Bead autofluor, O=C(CSCc1c(F)cccc1Cl)NCc1ccncc1 shows 4230

Continued:
SMILES	ugtP null kill	PrP 5UTR inh	Bead autofluor	BJeLR viability	Mtb hypoxia inh	Mtb hypoxia inh growth	Sa RN4220 lethal
Cc1cc(C)nc(NC(=O)c2cccc(Cl)c2)n1	.	-60.4	22692*	3.5	.	.	.
COc1ccc(S(=O)(=O)N2CCCCC2)cc1NC(=O)COc1ccccc1	8.7	-2.7	?	-5.6	8.3	-9.7	8.9
Cc1nccn1CC(O)Cn1c2ccccc2c2ccccc21 (stereo unspecified)	-3.6	-12.5	3179	-1.1	9.5	13.3	6.8
O=c1[nH]c2ccccc2c(=O)n1Cc1ccccc1	1.3	-11.5	4705	1.8	.	.	5.2
O=C1OCC(c2ccccc2)=C1c1ccccc1[N+](=O)[O-]	-2.4	-8.6	4153	4.5	9.6	3.7	4.3
Cc1ccc(SCCC(=O)N/N=C/c2ccncc2)cc1	.	-22.1	4478	6.5	.	.	.
O=C(Cc1ccccc1)NCC(=O)OCc1ccccc1F	3.3	-89.6	5485	-3.1	5.0	-1.0	1.2
COc1ccc(Nc2ncnc3ccccc23)c(OC)c1	11.1	-27.1	2295	1.0	.	.	9.2
O=C(NCCc1ccccc1)c1noc2c1CCCCC2	7.6	-119.7	19823*	.	9.4	7.7	4.8
NC(=O)C1CCN(c2nc(-c3cccc(N)c3)cs2)CC1	-6.0	-22.5	4030	.	14.4	11.2	1.0
CCOc1ccc(N=Nc2c(C)[nH]n(-c3ccccc3)c2=O)cc1	-4.1	-9.2	3118	-6.0	0.8	-3.5	3.5
CC1CCCCC1NC(=O)COC(=O)Cc1ccc(Br)cc1 (stereo unspecified)	3.6	-10.7	4630	-3.6	12.3	5.0	3.2
COc1cc2c(c(OC)c1OC)-c1c(cc(OC)c(OC)c1OC)C[C@](C)(O)C(C)C2 (stereo partly specified)	1.4	.	.	.	16.3	4.5	7.6
COc1cc(NC(=O)Cc2ccc(Cl)cc2)ccc1NC(=O)c1ccco1	-8.9	-11.8	9688	-12.9	6.4	3.6	9.4
COc1ccc(C2CC(=O)C=C(C=Cc3ccccc3)C2)cc1OC (stereo unspecified)	17.9	.	.	.	2.7	5.8	5.8
O=C(c1cccc(Cl)c1)N1CCN(C(=O)c2ccccc2F)CC1	4.5	-21.8	5243	-3.1	.	.	1.4
O=C(NCc1ccc(Cl)cc1)C1CCN(c2cnccn2)CC1	-11.7	-10.0	4230	3.8	-12.6	-3.3	-0.6
CCC/C(O)=C1\C(=O)CC(C)(C)CC1=Nc1ccccc1OC	15.3	-11.4	2780	-5.8	.	.	-0.7
CN1C(=O)C2(NCCc3c2[nH]c2ccccc32)c2ccccc21 (stereo unspecified)	-6.0	-14.8	3265	9.1	7.8	-13.0	3.1
O=C(O)CCC(=O)N1c2ccccc2NC2=C(C(=O)CC(c3ccc(F)cc3)C2)C1c1ccc([N+](=O)[O-])o1 (stereo unspecified)	8.5	-12.1	2400	7.7	3.7	-3.0	1.8

New compounds follow.
Molecule	ugtP null kill	PrP 5UTR inh	Bead autofluor	BJeLR viability	Mtb hypoxia inh	Mtb hypoxia inh growth	Sa RN4220 lethal
Cc1ccc(O)c(C(CC(=O)N2CCCC2)c2ccccc2)c1 (stereo unspecified)	-1.2	-29.3	2481	15.0	-4.3	7.9	-1.2
O=C(OCc1nnc(-c2ccc([N+](=O)[O-])cc2)o1)c1ccc(F)c(S(=O)(=O)N2CCOCC2)c1	-11.0	12.0	6142	.	1.6	7.4	-0.3
Cc1ccc(C(C(=O)NCc2ccco2)N(CC2CCCO2)C(=O)Cn2nnc3ccccc32)cc1 (stereo unspecified)	-0.9	-11.9	2357	3.2	.	.	-5.0
c1ccc(-n2ncc3c2ncn2cnnc32)cc1	-3.9	-6.2	2854	-3.6	-3.8	-4.2	-8.7
Cc1ccc(NC(=O)N2CCc3ccccc3C2)cc1C	-6.2	-54.6	6252	0.5	-2.4	15.1	-4.6
COC(=O)c1ccc(-n2c(CCC(=O)O)ccc2-c2ccc(C)cc2)cc1	-1.6	3.3	3253	4.7	-5.6	-6.3	18.0
Cc1[nH]c(C)c(S(=O)(=O)N(C)Cc2ccccc2)c1C(=O)N1CCCC1	-1.7	-11.5	5940	2.0	-1.0	4.3	-1.7
O=[N+]([O-])c1c(Nc2ccc(O)cc2)cc(N2CCOCC2)c2nonc12	-0.6	15.6	2389	-11.7	5.8	5.0	0.8

Of the compounds above, two have a cyano group:
Molecule	ugtP null kill	PrP 5UTR inh	Bead autofluor	BJeLR viability	Mtb hypoxia inh	Mtb hypoxia inh growth	Sa RN4220 lethal
Cc1ccc2nc(NCCNC(=O)c3ccccc3)c(C#N)cc2c1	2.4	-16.6	3376	-6.0	7.1	2.5	3.3
CCCn1c(C)cc(/C=C(\C#N)C(=O)OCC(=O)N(CC)c2c(N)n(Cc3ccccc3)c(=O)[nH]c2=O)c1C	4.9	-27.8	2982	.	7.9	6.7	1.6

The list goes on.
Molecule	ugtP null kill	PrP 5UTR inh	Bead autofluor	BJeLR viability	Mtb hypoxia inh	Mtb hypoxia inh growth	Sa RN4220 lethal
COC(=O)C(C(=O)OC)c1ccc(N)cc1	.	-17.2	4278	1.6	.	.	.
O=C(NC1CC1)C1CC(=O)N(c2ccc(F)cc2)C1 (stereo unspecified)	7.9	-28.0	4439	-3.5	11.7	1.1	2.3
Cc1ccc(C(CC(=O)O)NC(=O)CCNC(=O)c2ccco2)cc1 (stereo unspecified)	-5.2	-3.7	?	.	1.9	10.8	-2.3
CC(SC(=S)N1CCOCC1)C(=O)O (stereo unspecified)	9.7	-17.5	2418	13.9	4.1	3.5	6.9
CCc1ccc(NC(=O)COC(=O)/C=C/c2c(C)nn(C3CCS(=O)(=O)C3)c2Cl)cc1 (stereo unspecified)	5.2	-18.9	3541	6.0	-0.1	-1.1	5.6
COc1ccc(C=NNc2ccc(C(F)(F)F)cc2[N+](=O)[O-])cc1	8.0	.	.	.	13.2	-1.3	2.1
CCOC(=O)NN=C1c2ccccc2-c2ccccc21	3.6	-31.8	3250	6.2	9.9	10.9	5.0
COc1cccc(C=NNC(=O)CC(=O)NCCc2ccccc2)c1OC	-2.0	.	.	.	-1.1	10.9	2.8
CCN(CC)CCCNC(=O)c1cc2c(=O)[nH]c3ccc(C)cc3c2s1	1.9	-27.1	3977	4.4	0.5	2.3	-2.2
O=C(Nc1ccccc1F)c1ccc2nc(N3C(=O)CCC3=O)sc2c1	2.8	-9.1	?	6.9	21.6	2.3	3.9
Cc1cccc(NC(=O)CN2CCN(C(=O)C(C)Oc3ccc(C#N)cc3)CC2)c1C (stereo unspecified)	1.1	.	5657	.	8.6	5.8	-3.0

Source: PubChem
